Source: PubChem BioAssay
D2 ag = Beta-Arrestin HTS for Positive Allosteric Modulators of the Human D2 Dopamine Receptor: Agonists; D(2) dopamine receptor (Homo sapiens), P14416; DiscoveRx PathHunter D2 beta-arrestin, luminescence, 90 min; 100% = 57 uM dopamine signal; activation, % (concentration not given with the values); actives 0.084% (n = 360,000); in the data active = activation above about 40%; inconclusive = about 15% to 40%; inactive = below about 15%; further: compound concentration not given in the record; the text of the record calls up to 30% inactive
Target sequence (P14416 whole entry, looked up): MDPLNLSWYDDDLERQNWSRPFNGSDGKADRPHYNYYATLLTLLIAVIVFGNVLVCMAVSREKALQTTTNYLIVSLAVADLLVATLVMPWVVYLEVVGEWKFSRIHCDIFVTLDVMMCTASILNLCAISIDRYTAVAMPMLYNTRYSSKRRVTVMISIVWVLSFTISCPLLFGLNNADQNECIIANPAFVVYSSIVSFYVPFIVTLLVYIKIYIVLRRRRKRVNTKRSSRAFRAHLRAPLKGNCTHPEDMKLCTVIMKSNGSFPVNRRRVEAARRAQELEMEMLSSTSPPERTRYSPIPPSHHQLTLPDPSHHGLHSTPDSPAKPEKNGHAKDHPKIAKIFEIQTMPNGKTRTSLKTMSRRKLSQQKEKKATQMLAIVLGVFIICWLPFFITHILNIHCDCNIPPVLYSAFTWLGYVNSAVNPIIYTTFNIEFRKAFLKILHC
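DiscoveRx PathHunter D2 beta-arrestin cells (2,100/well) attached overnight, then compound-stimulated 90 min at 37 C in HBSS/10 mM HEPES/0.1% Tween-20 buffer; beta-galactosidase complementation read by luminescence after 1 h at ambient temperature. Dopamine 57 uM final (EC100) as control.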
TRPML1 inh = qHTS for Inhibitors of the Human Mucolipin Transient Receptor Potential 1 (TRPML1). Mucolipin-1 (Homo sapiens), Q9GZU1. TRPML1-inducible cells, Ca2+ dye fluorescence, FDSS; active compounds read low; inhibition of EC80 agonist-evoked calcium signal. activity change, negative = inhibition, % (test concentration not listed). actives 0.02% (n = 390,000). AID 624415, 2012; in the data active means activity change below about -50%; inconclusive means about -30% to -50%; inactive means above about -30%;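 further: stimulus is agonist 54-4 at its EC80 concentration; on the % scale 0 is the no-effect control and ±100 the full control effect; compound concentration not given in the record; the text of the record puts the active cut at -80%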
Target sequence (Q9GZU1 whole entry, looked up): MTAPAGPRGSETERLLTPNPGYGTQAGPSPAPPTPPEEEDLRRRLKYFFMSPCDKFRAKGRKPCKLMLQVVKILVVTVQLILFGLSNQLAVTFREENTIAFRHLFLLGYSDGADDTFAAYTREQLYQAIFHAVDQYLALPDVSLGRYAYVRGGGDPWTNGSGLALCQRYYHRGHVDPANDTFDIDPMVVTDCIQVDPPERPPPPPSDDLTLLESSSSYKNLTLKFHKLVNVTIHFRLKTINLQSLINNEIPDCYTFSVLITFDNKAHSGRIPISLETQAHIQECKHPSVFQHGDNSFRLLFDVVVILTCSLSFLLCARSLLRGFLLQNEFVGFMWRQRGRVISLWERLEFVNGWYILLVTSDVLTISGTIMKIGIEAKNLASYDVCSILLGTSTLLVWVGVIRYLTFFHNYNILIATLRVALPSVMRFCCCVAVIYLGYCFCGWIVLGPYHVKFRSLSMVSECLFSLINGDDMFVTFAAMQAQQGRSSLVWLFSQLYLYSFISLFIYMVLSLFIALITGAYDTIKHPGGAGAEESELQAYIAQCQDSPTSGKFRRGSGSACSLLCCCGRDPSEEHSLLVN
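Calcium fluorescence in TRPML1-DL cells induced overnight with Tet: a 110 s read after compound pin addition, then a 110 s antagonist read after challenge with 54-4 at 4 uM final (EC80).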
PINK1 expr mod = A Quantitative High throughput Screen to Identify Chemical Modulators of PINK1 Expression; PINK1 immunofluorescence, high-content cytometry, 24 h; Potency, µM (titrated, usually from 76.6 µM), for inactives: at the top dose activation (PINK1 increase), actives largely listed as activators; actives 0.2% (n = 410,000); AID 624263, 2012; active = well fitted activation curve with a large enough effect; inconclusive = small, poorly fitted or top-dose-only effect; inactive = flat fitted curve, though single readings scatter; cell line not stated here;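 further: potency means the concentration at half of the fitted maximal effect; % of control where 0% means no effect; nearly all actives have a fitted effect of over 65% in size; a mitochondrial uncoupler was the plate control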
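PINK1 protein, normally rapidly degraded, was detected by immunofluorescence after 24 hour compound treatment of a stable cell line. Titration data (5 concentrations) came from laser-scanning cytometry, with CCCP-treated wells as controls.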
TRPML1 ag = qHTS for Agonists of the Human Mucolipin Transient Receptor Potential 1 (TRPML1) | TRPML1-expressing cells, Ca2+ dye fluorescence, FDSS; host cell line not named in the record; reference of the full effect not given here | activation, % (test concentration not listed) | actives 0.12% (n = 410,000) | AID 624414, 2012; in the data active = activation above about 50%; inconclusive = about 30% to 50%; inactive = below about 30%; further: 0% is about no effect; the text of the record puts the active cut at 80%
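Tet-induced TRPML1-DL cells, 1,500 per well, cultured overnight, were loaded with a no-wash Ca2+ dye for 45–90 min. Calcium fluorescence was recorded on the FDSS for 110 s after compound addition, before the EC80 agonist (4 uM 54-4) was added.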
CtBP-E1A blk = qHTS Assay for Inhibitors of the CtBP/E1A Interaction; CtBP / adenovirus E1A interaction (AlphaScreen); activity change, % (test concentration not listed); AID 651724, 2012; AlphaScreen GST-E1A/His-CtBP binding, 1536-well; active compounds read low; control for the full effect not named in the record; actives 0.49% (n = 340,000); in the data active means activity change below about -65%; inconclusive means about -30% to -65%; inactive means above about -30%; further: on the % scale 0 is the no-effect control and ±100 the full control effect
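Homogeneous bead-based format: GST-tagged E1A captured on glutathione donor beads, His-tagged CtBP on nickel acceptor beads; compounds precede bead addition by 2 h at 37 °C.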
Six1-Eya2 inh = qHTS Assay for Inhibitors of the Six1/Eya2 Interaction | Homeobox protein SIX1 (Homo sapiens) + Protein phosphatase EYA2 (Homo sapiens), … | activity change, % (no concentration beside the values) | AID 651725, 2012 | AlphaScreen GST-Six1/His-Eya2 binding, biochemical; active compounds read low; control for the full effect not named in the record | actives 0.56% (n = 360,000); in the data active = activity change below about -65%; inconclusive = about -30% to -65%; inactive = above about -30%; further: on the % scale 0 is the no-effect control and ±100 the full control effect
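AlphaScreen with GST-Six1 and His-Eya2 (5X mix: 250 nM and 500 nM), glutathione donor and nickel acceptor beads; buffer 50 mM Tris pH 8.0, 300 mM NaCl, 1 mM TCEP; 1 h at 37 C in the dark.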
An asterisk follows results filed as active; ? = inconclusive; . = not tested or not shown; & = joins results of further samples; [ ] = dose if it differs, or a comment.

SMILES	D2 ag	TRPML1 inh	PINK1 expr mod	TRPML1 ag	CtBP-E1A blk	Six1-Eya2 inh
O=C(c1ccccc1)n1nc(-c2ccc(Cl)cc2)nc1NCc1ccco1	.	-11	9.1%	2.4	.	.
Cn1ccc(=Nc2ccc(NC(=O)c3ccc(N=c4ccn(C)c5ccc([N+](=O)[O-])cc45)cc3)cc2)cc1	-2.6	21	9.4%	1.1	.	-23
CCC(COC(=O)c1ccccc1)Oc1cc(NCc2ccccc2)c2ncn(C(C)C)c2c1 (stereo not drawn)	?	-9	?	1.2	-19	-15
CCOC(=O)c1cccc(NC(=O)Cn2nc(C)n3cccc3c2=O)c1	-0.7	5	0.5%	1.1	.	0
CCCNC(=O)c1nc2ncc(Br)cn2n1	-2.3	-20	-0.5%	2.4	0	26
Fc1cccc(CN2CCSCC2)c1	2.7	-2	-0.5%	0.2	-1	6
O=C(O)c1cccc(C(=O)Nc2cccc(NC(=O)C3CCCO3)c2)c1 (stereo not drawn)	-3.8	0	-1.4%	0.6	0	23
COc1ccccc1-c1cccc([C@@H]2C[C@H]3[C@H](CON3C)CN2C)c1	-0.6	-11	0.2%	0.9	-20	-2
COC(=O)C1C(c2ccccc2)C(C(=O)N2CCN(C)CC2)C1c1ccccc1 (stereo not drawn)	-3.1	12	-2.9%[38.3 µM]	0.6	4	4
N/C(=N\OC(=O)c1ccccc1Cl)c1cccnc1	14	6	-1.7%	0.1	11	7
N#CCC(=O)Nc1ccc(C(=O)NNC(=S)NC2CCCCC2)cc1	-3.9	12	-0.2%	0.0	-4	-2
O=C1c2ccccc2C(=O)N1n1c(=O)[nH]c2ccccc2c1=O	-2.4	4	1.0%[38.3 µM]	1.7	1	4
Cc1c(NC(=O)C(C)OC(=O)COc2ccccc2)c(=O)n(-c2ccccc2)n1C (stereo not drawn)	0.1	25	1.2%	-1.4	-5	5
Cc1ccc2c(Cl)cc(Cl)c(OCC(=O)N(C(C)C)C(C)C)c2n1	-2.8	45	4.5%	0.2	-19	-2
COc1ccc(F)cc1C(=O)C1CCCN(C(=O)c2ccc(C(C)=O)s2)C1 (stereo not drawn)	-3.4	34	-1.0%	-1.0	2	5
O=C1CNC(=O)/C(=C/c2ccco2)N1	2.8	35	-1.8%	0.6	3	-11
C=CCNC(=S)NNC(=O)CC12CC3CC(CC(C3)C1)C2	-3.1	18	-1.1%	0.3	2	2
O=C(C1CC2C=CC1C2)N1CCN(c2ccccc2)CC1 (stereo not drawn)	-2.8	-2	0.2%	0.9	.	-18
COc1ccc(Nc2nc(N)nc(CSC(=S)N3CCN(c4ccccc4)CC3)n2)cc1	-5.4	-16	3.6%	-0.5	?	-21
CCCCC1S/C(=N/N=C/c2ccc(OC)cc2)N(Cc2ccc(OC)cc2)C1=O (stereo not drawn)	-3.4	2	-1.2%	1.8	-5	0

2 compounds from above, reduced to TRPML1 inh:
Structure | TRPML1 inh
C=CCNC(=S)NNC(=O)CC12CC3CC(CC(C3)C1)C2 | 18
O=C(C1CC2C=CC1C2)N1CCN(c2ccccc2)CC1 (stereo not drawn) | -2

(listing goes on)
SMILES	D2 ag	TRPML1 inh	PINK1 expr mod	TRPML1 ag	CtBP-E1A blk	Six1-Eya2 inh
COC(=O)Cc1[nH]n(-c2nc3ccccc3s2)c(=O)c1C(C)=Nc1ccc(Cl)cc1	-0.8	26	-0.7%	-0.6	0	-3
COc1ccccc1NC(=S)NCC1CCCCC1	0.4	-6	1.5%	0.5	.	-10
O=C(Nc1ccc(S(=O)(=O)N2CCc3ccccc3C2)cc1)c1ccccc1	0.1	0	-0.2%[38.3 µM]	1.2	2	-2
COc1ccccc1Cc1c(-c2ccc(Cl)cc2)nc2ccc(Cl)cn12	-3.6	-4	3.7%	1.1	-24	9
Cc1ccc2c(c1)NC(=O)C(CC(=O)NCCCN1CCN(c3cc(Cl)ccc3C)CC1)O2 (stereo not drawn)	1.1	25	1.3%	2.8	-7	-11
Cc1ccc(CNC(=O)C2CCCN(S(=O)(=O)c3cnc[nH]3)C2)cc1 (stereo not drawn)	-0.7	-13	1.0%	-0.4	0	3
Cc1cc(C)nc(NC(=O)c2ccc(Br)s2)n1	-5.0	6	1.5%	0.6	-6	6
CCOC(=O)c1ccc(NC(=S)NCCCN2CCN(C3CCCCC3)CC2)cc1	-0.2	42	0.0%	0.1	0	-2
Cc1cccc(NC(=O)CSc2nc3ccc(NC(=O)COc4ccccc4F)cc3s2)c1	.	-12	3.3%	0.1	.	.
CCCC(=O)NC(Nc1ccc(S(=O)(=O)Nc2cc(C)on2)cc1)(C(=O)OCC)C(F)(F)F (stereo not drawn)	1.8	-2	-0.1%	-0.9	9	3
Cc1ccc(CONC(=O)c2ccccc2)cc1	0.2	-2	4.1%	1.0	7	-3
COc1ccccc1N(C)S(=O)(=O)c1ccc(Cl)c(C(=O)NNC(=O)c2ccccc2O)c1	0.5	-4	-0.2%	-0.2	-14	-9
O=C(CSc1nnc(-c2cccs2)o1)Oc1ccccc1Cl	.	0	0.9%	-0.6	.	.
O=C1Cc2c([nH]c3ccc(Br)cc23)-c2ccccc2N1	1.5	9	-1.5%	13	0	8
CCCCn1c(SCC(=O)Nc2ccc3c(c2)OCCO3)nnc1C(CC)N(C)C (stereo not drawn)	-4.4	-5	-0.4%	-0.7	.	1
Cc1ccc(NC(=O)CSc2nnc(-c3cc(C)on3)o2)cc1	-1.6	4	-0.3%	0.1	0	-2
O=C(NCCCN1CCOCC1)C(=O)NCC1OCCN1S(=O)(=O)c1ccc(F)cc1 (stereo not drawn)	0.3	23	5.4%	0.2	4	-1
COc1ccccc1CNC(=O)CS(=O)(=O)Cc1ccccc1	-1.0	6	2.2%	0.1	6	6
O=C(c1ccc(Cl)cc1)N1CCN(C(=O)c2ccco2)CC1	-3.7	-14	3.6%	-0.3	5	-11
N#Cc1cc([N+](=O)[O-])ccc1Oc1ccc(-c2nnco2)cc1	3.6	13	-1.7%	0.4	-1	7
Cc1ccccc1Cn1cc(CCC(=O)N2CCOCC2)c2ccccc21	-3.8	18	-1.5%	1.2	-8	-3
CCNC(=S)Nc1cc(OC)c(NC(=O)c2ccco2)cc1OC	3.2	43	-2.4%	0.5	0	3
CC1(c2cccc([N+](=O)[O-])c2)CC(C)(C)N(C(=O)c2ccccc2)c2ccccc21 (stereo not drawn)	0.0	-15	1.9%	-0.4	-19	4
CCOc1ccc(S(=O)(=O)N2CCN(C(=O)c3oc4ccccc4c3C)CC2)cc1	-1.0	33	-1.2%	2.1	-16	-6
S=c1[nH]nc(C(c2ccccc2)C2CCCCC2)o1 (stereo not drawn)	-2.3	32	1.1%	0.6	-6	-6
O=P(CCCCCCCCCP(=O)(c1ccccc1)c1ccccc1)(c1ccccc1)c1ccccc1	6.1	-18	-1.7%	1.7	-10	-14
Cc1cccc(OC(=O)C2C(c3ccccc3)C(C(=O)O)C2c2ccccc2)c1 (stereo not drawn)	1.7	1	-3.2%	-0.7	-8	1
CCC(C(=O)NC1CCCC1)N(C(=O)Cn1nnc(-c2ccc(C)o2)n1)c1ccc(OC)c(OC)c1 (stereo not drawn)	-2.1	3	1.1%	-0.4	-11	-2
O=[N+]([O-])c1cc(/C=N/N2CCN(c3ccccc3)CC2)ccc1Cl	0.1	11	16%	-0.7	-5	-7
CCOc1ccc(-n2cc(C(=O)N3CCC(C)CC3)c3cc(OC)c(OC)cc3c2=O)cc1	1.0	-5	5.4%	0.0	-4	5
Cc1c(NC(=O)C23CC4CC(CC(C)(C4)C2)C3)c(=O)n(-c2ccccc2)n1C	-0.1	-8	1.2%	0.0	8	9
CCC1SC2=NC(C)=C(C(=O)OC)C(c3ccc(C)cc3)N2C1=O (stereo not drawn)	-2.6	-9	-1.0%	-0.1	-15	-3
Clc1ccc(CNc2nnnn2-c2ccccc2)c(Cl)c1	-0.8	-3	6.9%	0.3	4	0
Cc1ccccc1-n1c(SCc2c(C)noc2C)nnc1-c1ccncc1	0.7	15	0.3%[38.3 µM]	0.0	-2	0
COc1ccc(/C=N\NC(=O)c2cc(O)c(O)c(O)c2)cc1COc1ccc(C(=O)OCC(C)C)cc1	10	32	?	-0.3	.	-28
COCCCNc1nc2cc(OC)c(OC)cc2c2nc(-c3ccccc3)nn12	-2.6	-27&-9	5.0%&2.4%	0.3&-0.5	2	-2
COc1ccc(Cl)cc1S(=O)(=O)N1CCCC1=O	-2.1	-15	0.5%	-0.2	6	6
Cc1cc(S(=O)(=O)NCCN(C)C)c(C)s1	0.0	-1	.	-0.4	2	8
O=C(Nc1ncc(Cc2ccc(Cl)cc2Cl)s1)c1ccc([N+](=O)[O-])cc1	2.9	3	?	1.5	7	-16
COC(=O)CSc1nnc(-c2cccnc2)n1C	0.9	-1	0.1%	-0.6	-18	1

6 compounds out of the list above, ordered by the number in CtBP-E1A blk, low to high.
Compound	CtBP-E1A blk
COC(=O)CSc1nnc(-c2cccnc2)n1C	-18
O=[N+]([O-])c1cc(/C=N/N2CCN(c3ccccc3)CC2)ccc1Cl	-5
Cc1ccccc1-n1c(SCc2c(C)noc2C)nnc1-c1ccncc1	-2
COCCCNc1nc2cc(OC)c(OC)cc2c2nc(-c3ccccc3)nn12	2
Clc1ccc(CNc2nnnn2-c2ccccc2)c(Cl)c1	4
O=C(Nc1ncc(Cc2ccc(Cl)cc2Cl)s1)c1ccc([N+](=O)[O-])cc1	7

Going on with the list.
SMILES	D2 ag	TRPML1 inh	PINK1 expr mod	TRPML1 ag	CtBP-E1A blk	Six1-Eya2 inh
Cc1cc(C)c2c(CN(C)Cc3ccccc3)cc(=O)oc2c1	-2.6	.	1.5%	0.1	15	13
Cc1nn(Cc2cccc(F)c2)c(C)c1NC(=O)c1c(Cl)cnn1C	-2.2	6	-1.4%	-0.4	2	-2
S=C(Nc1ccc(Cl)cc1Cl)N1CCN(c2ccccn2)CC1	2.2	-3	1.6%	0.0	4	-1
COc1ccc(NC(=O)CSc2nnnn2C)cc1S(=O)(=O)N1CCCCC1	3.4	11	-0.6%	0.2	-22	20
COc1cc(C(=O)NCC(=O)OCCN2C(=O)c3ccccc3C2=O)cc(OC)c1OC	3.4	-9	3.0%	-0.1	-18	12
CCOc1c(Cl)cnn(-c2ccc(C)cc2)c1=O	-3.5	7	5.0%	0.0	10	0
COc1ccc(NCc2n[nH]nc2-c2ccccc2)cc1Cl	-2.3	-19	-0.4%	4.5	-23	-19
CCOC(=O)C(NC(=O)CC)(Nc1ccccc1OC)C(F)(F)F (stereo not drawn)	-3.3	-8	1.5%	1.0	8	-8
CC(C)CNC(=O)COC(=O)c1cc(S(=O)(=O)N2CCCCC2)ccc1N1CCOCC1	-0.9	22	0.5%	-0.7	-7	5
